MARV entry inh: inhibitors of Marburg virus binding or cell entry | Marburg virus pseudotyped entry inhibition, cell reporter; control for the full effect not named in the record; about a third of the inactives were read at about 46 µM | Potency, µM (titrated, usually from 37.8 µM), for inactives: top-dose activity change, negative = inhibition, actives largely listed as inhibitors | 300,000 tested, 1.8% active; active = well fitted inhibition curve with a large enough effect; inconclusive = small, poorly fitted or top-dose-only effect, or effect the other way; inactive = flat fitted curve, though single readings scatter; tested in HEK293 cells; about a fifth of its hits are not listed in these tables; note: % is set by controls: 0 for no effect and ±100 for the full control effect; luciferase read-out
NS1 inh: inhibitors of influenza NS1 protein function; Potency, µM (series often up to 46.1 µM), without a hit: at the top dose activity, positive = more growth; AID 2326; 270,000 tested, 0.4% active; S. cerevisiae slowed by influenza A NS1, growth recovery by OD600; note: actives are rising curves; nearly all actives have a fitted effect of over 50% in size
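Growth recovery, yeast-based: influenza A NS1 expressed in S. cerevisiae causes slow growth, and suppressors are detected by OD600. The parent strain without NS1 is used as positive control.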
Cruzain noTriton: cruzain (T. cruzi) inhibition without detergent | purified cruzain, Z-FR-AMC fluorescence, no detergent | 200,000 tested, 2.3% active | Potency, µM, without a hit: max response, negative = inhibition, most hits filed as inhibitors; active = well fitted curve in the direction sought with a large enough effect; inconclusive = small, poorly fitted or top-dose-only effect, or another doubt; inactive = no such curve, though single readings can be large; an effect the other way counts as inactive or inconclusive;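 note: plate controls were enzyme without inhibitor for no effect and buffer without enzyme for full effect; nearly all actives have a fitted effect of over 40% in size; top concentration of the series not given in the record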
Target sequence (P25779 123-467 limits assumed): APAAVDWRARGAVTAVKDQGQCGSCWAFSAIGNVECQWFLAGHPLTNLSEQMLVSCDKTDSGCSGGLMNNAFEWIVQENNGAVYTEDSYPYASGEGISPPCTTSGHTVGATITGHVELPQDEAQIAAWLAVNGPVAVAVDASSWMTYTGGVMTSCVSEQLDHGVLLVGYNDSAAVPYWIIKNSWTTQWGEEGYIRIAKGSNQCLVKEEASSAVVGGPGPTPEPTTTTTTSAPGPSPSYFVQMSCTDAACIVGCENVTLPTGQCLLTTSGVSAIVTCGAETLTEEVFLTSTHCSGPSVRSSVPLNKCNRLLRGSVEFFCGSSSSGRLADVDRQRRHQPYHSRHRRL
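Purified cruzain at 1.5 nM, pre-incubated 15 min with compound at room temperature in 100 mM sodium acetate pH 5.5, 5 mM DTT, 0.00005% Triton X-100. Reaction started with 2 uM Z-FR-AMC; AMC fluorescence increase over 60 s gives rate.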
SARS PLpro yeast: inhibitors of SARS-CoV papain-like protease in yeast. S. cerevisiae expressing SARS-CoV PLpro, growth rescue; control for the full effect not named in the record. AID 485353. 330,000 tested, 0.19% active. Potency, µM (titrated, usually from 32.9 µM), for inactives: at the highest dose activity, positive = growth rescue; note: 0% is about no effect; nearly all actives have a fitted effect of over 55% in size; growth read by luminescence after 48 h
StopGo reporter: FMDV 2A StopGo reporter, luciferase signal; human cells with a luciferase reporter of 2A StopGo recoding; control for the full effect not named in the record; Potency, µM (top dose mostly 57.9 µM), for inactives: at the top dose signal change, negative = less light; 410,000 tested, 1.2% active; active = well fitted falling curve with a large enough effect; inconclusive = small, poorly fitted or top-dose-only effect; inactive = no such curve, though single readings can be large or run the other way; tested in HEK293T cells; note: % is set by controls: 0 for no effect and ±100 for the full control effect; nearly all actives have a fitted effect of over 45% in size; luciferase light after 4 h
RE007 growth inh: less growth of the S. pombe RE007 Vpr strain. S. pombe RE007 Vpr strain, BacTiter-Glo ATP luminescence, 24 h; control for the full effect not named in the record. Potency, µM (series often up to 92.2 µM), for inactives: at the top dose activity change, negative = less growth. 360,000 tested, 0.21% active; active = well fitted falling curve with a large enough effect; inconclusive = small, poorly fitted or top-dose-only effect; inactive = no such curve, though single readings can be large or run the other way;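 note: % is set by controls: 0 for no effect and ±100 for the full control effect; nearly all actives have a fitted effect of over 50% in size; the assay follows cell death caused by Vpr and the record does not say whether a fall means rescue or toxicity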
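Fission yeast strain RE007, carrying one chromosomally integrated HIV-1 vpr copy, was seeded at OD 0.01 in PMG+AL medium with 23 nL pinned compound. After 24 h at 30 °C and 99% humidity, viability was read by BacTiter-Glo luminescence.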
Cruzain Triton: cruzain (T. cruzi) inhibition with detergent; 200,000 tested, 0.43% active; Potency, µM, without a hit: max response, negative = inhibition, actives largely listed as inhibitors; purified cruzain, Z-FR-AMC fluorescence, 0.01% Triton; P25779; active = well fitted curve in the direction sought with a large enough effect; inconclusive = small, poorly fitted or top-dose-only effect, or another doubt; inactive = no such curve, though single readings can be large; an effect the other way counts as inactive or inconclusive;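 note: plate controls were neutral wells for no effect and buffer without enzyme for full effect; nearly all actives have a fitted effect of over 40% in size; top concentration of the series not given in the record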
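Detergent-containing run (0.01% Triton X-100) in acetate buffer pH 5.5 with 5 mM DTT: enzyme at 1.5 nM final, 15 min compound preincubation at room temperature, then 2 uM Z-FR-AMC substrate. Activity taken as 60 s fluorescence increase at 360/450 nm.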
Lassa entry inh: inhibitors of Lassa virus binding or cell entry | 300,000 tested, 1.2% active | Lassa virus pseudotype entry inhibition, cell reporter; control for the full effect not named in the record | Potency, µM (titrated, usually from 37.9 µM), for inactives: top-dose activity change, negative = inhibition, hits mostly inhibitors; active means well fitted inhibition curve with a large enough effect; inconclusive means small, poorly fitted or top-dose-only effect, or effect the other way; inactive means flat fitted curve, though single readings scatter; tested in HEK293 cells; note: % is set by controls: 0 for no effect and ±100 for the full control effect; nearly all actives have a fitted effect of over 50% in size; luciferase read-out
An asterisk follows results filed as active; & = joins results of further samples; [ ] = remark or other dose. Unless noted, calls come from the whole dose curve; as a rule, active means well fitted rising curve with a large enough effect; inconclusive means small, poorly fitted or top-dose-only effect; inactive means no such curve, though single readings can be large or run the other way. Potency is the fitted concentration of half-maximal effect.

O=C(NCc1csc(-c2cccs2)n1)c1cccc(Cl)c1 was read as MARV entry inh 15%[46.1 µM], NS1 inh -42%, SARS PLpro yeast -3%, StopGo reporter 22%, RE007 growth inh 11% and Lassa entry inh inconclusive.
`CCOC(=O)C1CCN(S(=O)(=O)c2cccc(-c3cn4cccnc4n3)c2)CC1` gave MARV entry inh inconclusive, NS1 inh -5%, Cruzain noTriton 20%, SARS PLpro yeast 1%, StopGo reporter -12%, RE007 growth inh 13%, Cruzain Triton inconclusive and Lassa entry inh -11%.
Screening O=C(Nc1nnc(S(=O)(=O)N2CCCC2)s1)c1ccccc1Cl returned NS1 inh 7%, Cruzain noTriton inconclusive, SARS PLpro yeast -1%, StopGo reporter -10%&14%, RE007 growth inh 0%, Cruzain Triton -2.2% and Lassa entry inh inconclusive.
CC(C)COCC1CC2(CC(C)(c3csc(N)n3)OC2=O)C(=O)O1 (stereo not drawn) was read as MARV entry inh 20%&20%, NS1 inh 6%, Cruzain noTriton -5%, SARS PLpro yeast 1%, StopGo reporter 9%, RE007 growth inh -12%, Cruzain Triton -1.0% and Lassa entry inh 0%.
Screening CS(=O)(=O)N(Cc1ccc(C(=O)NCc2ccco2)cc1)c1ccccc1 returned MARV entry inh 3%, NS1 inh 10%, Cruzain noTriton 3%, SARS PLpro yeast -1%, StopGo reporter -8%, RE007 growth inh -3%, Cruzain Triton 4.5% and Lassa entry inh -22%.
COc1cc(/C=N/NC(=O)CSc2n[nH]c(=O)[nH]c2=O)cc(OC)c1O was read as MARV entry inh inconclusive, SARS PLpro yeast -6%, StopGo reporter 10%, RE007 growth inh -6% and Lassa entry inh 15%[46.1 µM].
Screening COc1ccccc1CCC(=O)Nc1ccc(S(=O)(=O)Nc2nccs2)cc1 returned MARV entry inh 24%, SARS PLpro yeast -1%, StopGo reporter 56%[activator], RE007 growth inh 10% and Lassa entry inh -16%.
For Cc1ccc(S(=O)(=O)c2nc(NCCCn3ccnc3)sc2Cl)cc1 the results were MARV entry inh -24%, NS1 inh 2%, Cruzain noTriton -3%, SARS PLpro yeast 8%, StopGo reporter -17%, RE007 growth inh 2%, Cruzain Triton -0.5% and Lassa entry inh -9%.
CCOC(=O)c1c(NC(=O)CSc2nccc(=O)[nH]2)sc(C)c1C was read as MARV entry inh 1%, NS1 inh 12%, SARS PLpro yeast -1%, StopGo reporter -9%, RE007 growth inh -2% and Lassa entry inh inconclusive.
`O=C(CNc1ccc2c(c1)OCO2)N/N=C\c1cn(Cc2ccccc2)c2ccccc12` gave MARV entry inh inconclusive, NS1 inh 29%, Cruzain noTriton 13µM*, SARS PLpro yeast 1%, StopGo reporter 5%, RE007 growth inh 4%, Cruzain Triton -7.7% and Lassa entry inh inconclusive.
For Cc1cccnc1NC(=O)c1ccc(NS(=O)(=O)/C=C/c2ccccc2)cc1 the results were MARV entry inh 0%, SARS PLpro yeast 7%, StopGo reporter 50%[activator], RE007 growth inh 5% and Lassa entry inh 0%.
O=C(Cc1cc(=O)oc2cc(O)ccc12)NC(Cc1ccc(Cl)cc1)C(=O)O (stereo not drawn) was read as MARV entry inh 8%[46.1 µM], NS1 inh 0%, SARS PLpro yeast -1%, StopGo reporter -16%, RE007 growth inh -16% and Lassa entry inh 11%[46.1 µM].
For COC(=O)C1=C(C)NC2=C(C(=O)CCC2)C1c1ccc(-c2ccsc2C(=O)OC)o1 (stereo not drawn) the results were NS1 inh 10%, SARS PLpro yeast 2%, StopGo reporter 29% and RE007 growth inh -4%.
`O=C(NCCCCc1ccccc1)C12CN(Cc3ccccc3)CC1C(c1ccc([N+](=O)[O-])cc1)=NO2` (stereo not drawn) gave MARV entry inh -1%, NS1 inh 30%, Cruzain noTriton inconclusive, SARS PLpro yeast -3%, StopGo reporter -17%, RE007 growth inh -11% and Cruzain Triton 1.4%.
Screening O=Cc1cccc(OC(=O)c2ccc(Cl)cc2Cl)c1 returned MARV entry inh 1%, NS1 inh -127%, Cruzain noTriton -10%, SARS PLpro yeast -9% and Cruzain Triton -5.9%.
`Cc1cc(-c2ccccc2)n2nc(C)c(-c3ccccc3)c2n1` gave MARV entry inh 14%, NS1 inh 5%, Cruzain noTriton 17%, SARS PLpro yeast 0%, StopGo reporter 7%, RE007 growth inh 6%, Cruzain Triton 2.0% and Lassa entry inh 17%.
For CCNc1nc(NCC)n2c(SCC(=O)Nc3ccc(F)cc3)nnc2n1 the results were MARV entry inh 13%, SARS PLpro yeast 3%, StopGo reporter 0%, RE007 growth inh -3% and Lassa entry inh -2%.
`O=C(CSc1ccc(Br)cc1)NC1CCCCCC1` gave MARV entry inh 17%, SARS PLpro yeast -2%, StopGo reporter 35%[activator], RE007 growth inh -11% and Lassa entry inh 17%.
For Cc1ncc([N+](=O)[O-])n1Cc1ccccc1 the results were MARV entry inh 4%, NS1 inh 1%, Cruzain noTriton -11%, SARS PLpro yeast -32%, StopGo reporter -21%, RE007 growth inh -1%, Cruzain Triton -3.2% and Lassa entry inh -10%.
`CCOC(=O)C(Sc1nnc2c3ccccc3n(CC)c2n1)C(=O)OCC` gave MARV entry inh 8%, NS1 inh 5%, Cruzain noTriton 10%, SARS PLpro yeast -1%, StopGo reporter -25%, RE007 growth inh 17%, Cruzain Triton -4.4% and Lassa entry inh -4%.
Screening COc1cccc(CNC(=O)CNC(=O)c2cccs2)c1 returned NS1 inh -2%, SARS PLpro yeast 2%, StopGo reporter 3% and RE007 growth inh 1%.
Screening COc1ccccc1-c1cc(C(=O)NCc2ccco2)no1 returned MARV entry inh -2%, NS1 inh -18%, Cruzain noTriton 2%, SARS PLpro yeast 0%, StopGo reporter 45%[activator], RE007 growth inh -8%, Cruzain Triton -5.6% and Lassa entry inh 0%.
COC(=O)Cc1cc(=O)n2[nH]c(C)nc2n1 was read as MARV entry inh 2%, NS1 inh -6%, Cruzain noTriton -2%, SARS PLpro yeast 1%, StopGo reporter 5%, RE007 growth inh 29%, Cruzain Triton 1.5% and Lassa entry inh 21%.
`CCCc1nnc(NC(=O)CCC(=O)O)s1` gave NS1 inh -8%, Cruzain noTriton -16%, SARS PLpro yeast 20%, StopGo reporter -21%, RE007 growth inh -18% and Cruzain Triton 3.1%.
For C=CCn1c(C)nnc1SCC(=O)c1c(N)n(C2CC2)c(=O)[nH]c1=O the results were MARV entry inh 0%, SARS PLpro yeast -7%, StopGo reporter -15%, RE007 growth inh -19% and Lassa entry inh 5%.
Screening CCOC(=O)N1CCN(Cc2nc(N)nc(Nc3ccc(OC)cc3)n2)CC1 returned MARV entry inh 2%, NS1 inh 5%, Cruzain noTriton 3%, SARS PLpro yeast 2%, StopGo reporter 12%, RE007 growth inh -6%, Cruzain Triton 4.4% and Lassa entry inh 8%.
CSCCC(NS(=O)(=O)c1ccc2c(c1)oc(=O)n2C)C(=O)Nc1ccc(Cl)cc1 (stereo not drawn) was read as MARV entry inh -13%[46.1 µM], Cruzain noTriton -17%, StopGo reporter 19%, Cruzain Triton 0.1% and Lassa entry inh -5%[46.1 µM].
For O=Cc1cc(-c2ccccc2)[nH]c1-c1ccccc1 the results were MARV entry inh 9%[46.1 µM], NS1 inh -6%, SARS PLpro yeast 2%, StopGo reporter 23%, RE007 growth inh 6% and Lassa entry inh 21%[46.1 µM].
`CCOc1ccc(C(C)=O)cc1CN1C(=O)c2ccccc2S1(=O)=O` gave MARV entry inh 7%[46.1 µM], NS1 inh 1%, SARS PLpro yeast 0%, StopGo reporter -29%, RE007 growth inh 1% and Lassa entry inh inconclusive.
Screening CC1(C)CC(=O)C(C=NCCCN2CCCC2=O)=C(O)C1 returned MARV entry inh -5%, NS1 inh -6%, Cruzain noTriton 8%, SARS PLpro yeast -2%, RE007 growth inh -3%, Cruzain Triton 1.1% and Lassa entry inh -7%.
Screening O=C(CNC(=S)N(CCCN1CCOCC1)Cc1cccs1)N1CCOCC1 returned MARV entry inh inconclusive, NS1 inh 13%, Cruzain noTriton -14%, SARS PLpro yeast -20%, StopGo reporter 0%, RE007 growth inh -9%, Cruzain Triton 1.9% and Lassa entry inh 5%.
`Cn1c(=O)c2cc(C(=O)N3CCN(c4ccc(Cl)cc4)CC3)sc2c2ccccc21` gave MARV entry inh 6%[46.1 µM], Cruzain noTriton -1%, StopGo reporter 1%, Cruzain Triton -3.5% and Lassa entry inh -2%[46.1 µM].
For COc1ccc(NC(=O)CCC2COc3ccccc3O2)c(OC)c1 (stereo not drawn) the results were MARV entry inh inconclusive, NS1 inh -6%, Cruzain noTriton -2%, SARS PLpro yeast 1%, StopGo reporter -15%, RE007 growth inh 0%, Cruzain Triton 6.9% and Lassa entry inh -17%.
COc1cccc(NC(=O)CSc2nc3ccccc3c(=O)n2CCCC(=O)NCCCN2CCOCC2)c1 was read as MARV entry inh inconclusive, SARS PLpro yeast -3%, StopGo reporter -6%, RE007 growth inh 9% and Lassa entry inh -21%.
Cc1cccc(C(=O)Oc2ccccc2C(=O)N2CCOCC2)c1 was read as NS1 inh -4%, SARS PLpro yeast -2%, StopGo reporter -12% and RE007 growth inh -18%.
Screening O=C(CCOc1ccccc1)N(Cc1cccnc1)c1nc2ccc(F)cc2s1 returned Cruzain noTriton -22%, StopGo reporter -2%, Cruzain Triton -13% and Lassa entry inh -13%[46.1 µM].
`Cc1cccc2sc(NC(=O)CN3C(=O)NC4(CCCC4)C3=O)nc12` gave MARV entry inh -16%[46.1 µM], NS1 inh -2%, SARS PLpro yeast 3%, StopGo reporter -7%, RE007 growth inh -2% and Lassa entry inh 5%[46.1 µM].
For Cc1ccc(NC(=S)N(CCN(C)C)C(C)c2cccnc2)cc1 (stereo not drawn) the results were MARV entry inh 9%[46.1 µM], SARS PLpro yeast 1%, StopGo reporter 6%, RE007 growth inh 3% and Lassa entry inh inconclusive.
Clc1c(Cl)c(Cl)c2n[nH]nc2c1Cl was read as MARV entry inh 28%[46.1 µM], NS1 inh -72%, SARS PLpro yeast -7%, StopGo reporter inconclusive, RE007 growth inh -22% and Lassa entry inh -26%[46.1 µM].
